# DUX4 txn inh = blocks DUX4-driven transcriptional activation | 293T-iDUX4 ZSCAN4-Gaussia luciferase reporter, 24 h; active compounds read low | activity change, negative = inhibition, % (concentration not given with the values) | 37,000 compounds, 0.8% hits;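 active means -10% or lower and over 25 points stronger than a control reporter; inconclusive means -10% or lower with a smaller gap; inactive means above -10%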;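 further: 0% = median of neutral control wells and -100% = median of positive control wells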
# DUX4 txn inh difference = recorded beside DUX4 txn inh, whose call it bears; Gaussia minus Italica difference, %; measured here: selective DUX4 reporter inhibition;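 worked out from the two reporters; negative = selective loss of the DUX4 reporter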
# DUX4 txn inh control = further read-out of DUX4 txn inh, marked with its call; activity change, negative = inhibition, %; measured here: Italica tet-on control reporter;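 0 = neutral control and -100 = positive control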
# An asterisk follows results filed as active; ? = inconclusive; . = no result given.
mol | DUX4 txn inh | DUX4 txn inh difference | DUX4 txn inh control
C[C@@H]1CN([C@@H](C)CO)C(=O)c2cc(N(C)C)ccc2O[C@@H]1CN(C)S(=O)(=O)c1cccs1 | 2 | 3 | -0.8
Cc1noc(C)c1NC(=O)N(C)C[C@@H]1OCCCC[C@H](C)Oc2ccc(NC(=O)Nc3cccc4ccccc34)cc2C(=O)N([C@H](C)CO)C[C@@H]1C | -2 | -6 | 3.3
COc1ccc(CNC(=O)C[C@@H]2C=C[C@H](NC(=O)c3cccc(F)c3)[C@@H](CO)O2)cc1 | -1 | 1 | -1.8
CN1c2ccc(-c3ccccc3)cc2[C@@H]2[C@@H](CCN2C(=O)NC2CCCCC2)[C@H]1CO | ? | . | .
CN1[C@@H]2CN(C(=O)Nc3cc(F)ccc3F)c3ccccc3[C@@H]2[C@@H]1CO | 7 | 1 | 5.3
COc1ccc(CN(C)C[C@@H]2OCc3cn(nn3)CCCC(=O)N([C@@H](C)CO)C[C@H]2C)cc1 | -2 | -1 | -0.9
C[C@@H]1CN([C@H](C)CO)C(=O)c2cc(NC(=O)Nc3cccc4ccccc34)ccc2O[C@@H](C)CCCCO[C@H]1CN(C)Cc1ccc(C(F)(F)F)cc1 | 3 | -1 | 3.2
O=C(C[C@@H]1C=C[C@@H](NC(=O)c2cccc(F)c2)[C@H](CO)O1)Nc1nccs1 | 2 | 5 | -3.0
C[C@@H]1CN([C@H](C)CO)C(=O)c2ccccc2-c2ccccc2CO[C@H]1CN(C)S(=O)(=O)c1ccc(C#N)cc1 | 11 | 4 | 6.1
CNC[C@@H]1Oc2c(N)cccc2C(=O)N([C@@H](C)CO)C[C@@H]1C | -2 | -2 | -0.1
COc1ccc2c3c([nH]c2c1)[C@@H](CO)N(C(=O)C1CCCCC1)CC31CCN(C)CC1 | 4 | -25 | 28
COCC#Cc1ccc([C@@H]2[C@H](CO)N3CCCCN(S(=O)(=O)c4ccc(OC)cc4)C[C@@H]23)cc1 | 6 | -2 | 7.3
O=C(N[C@@H]1C=C[C@@H](CC(=O)N2CCOCC2)O[C@H]1CO)c1ccccn1 | 2 | 0 | 1.8
Cc1noc(C)c1S(=O)(=O)N(C)C[C@@H]1Oc2c(NC(=O)c3ccc(-c4nccs4)cc3)cccc2C(=O)N([C@@H](C)CO)C[C@@H]1C | 1 | 0 | 1.3
COc1ccccc1C#Cc1ccc([C@H]2[C@@H](CO)N3CCCCN(S(C)(=O)=O)C[C@H]23)cc1 | ? | . | .
C[C@H]1CCCCO[C@@H](CN(C)Cc2ccc(C(=O)O)cc2)[C@@H](C)CN([C@@H](C)CO)C(=O)c2cc(NS(=O)(=O)c3ccc(F)cc3)ccc2O1 | -1 | 1 | -2.1
O=C(C[C@H]1CC[C@H]2[C@@H](COC[C@H](O)CN2Cc2ccc(Oc3ccccc3)cc2)O1)N1CCN(c2ccccc2)CC1 | ? | . | .
C[C@@H]1CN([C@H](C)CO)C(=O)c2cc(C#C[C@@H](C)O)cnc2O[C@H]1CN(C)C(=O)c1ccccc1F | 0 | 4 | -4.0
CC(=O)N1CC(=O)N2[C@H](CO)[C@@H](c3ccc(-c4cccc(C(=O)N(C)C)c4)cc3)[C@@H]2C1 | 16 | 0 | 16
CO[C@@H]1CN(C)C(=O)c2ccc(NC(=O)c3cc(C)on3)cc2OC[C@@H](C)NC[C@@H]1C | 5 | 9 | -3.0

# The list goes on, starting with the last five of the part before.
mol | DUX4 txn inh | DUX4 txn inh difference | DUX4 txn inh control
C[C@H]1CCCCO[C@@H](CN(C)Cc2ccc(C(=O)O)cc2)[C@@H](C)CN([C@@H](C)CO)C(=O)c2cc(NS(=O)(=O)c3ccc(F)cc3)ccc2O1 | -1 | 1 | -2.1
O=C(C[C@H]1CC[C@H]2[C@@H](COC[C@H](O)CN2Cc2ccc(Oc3ccccc3)cc2)O1)N1CCN(c2ccccc2)CC1 | ? | . | .
C[C@@H]1CN([C@H](C)CO)C(=O)c2cc(C#C[C@@H](C)O)cnc2O[C@H]1CN(C)C(=O)c1ccccc1F | 0 | 4 | -4.0
CC(=O)N1CC(=O)N2[C@H](CO)[C@@H](c3ccc(-c4cccc(C(=O)N(C)C)c4)cc3)[C@@H]2C1 | 16 | 0 | 16
CO[C@@H]1CN(C)C(=O)c2ccc(NC(=O)c3cc(C)on3)cc2OC[C@@H](C)NC[C@@H]1C | 5 | 9 | -3.0
COc1ccc(S(=O)(=O)Nc2ccc3c(c2)C(=O)N([C@@H](C)CO)C[C@@H](C)[C@@H](CN(C)S(=O)(=O)c2ccc(Cl)cc2)OCCCC[C@@H](C)O3)cc1 | 2 | -1 | 2.6
O=C(C[C@@H]1CC[C@@H]2[C@H](COC[C@@H](O)CN2C(=O)c2ccc(F)cc2)O1)N1CCCCC1 | 7 | 6 | 1.2
CCC(=O)N1C[C@@H]2[C@H](c3ccccc31)[C@@H](CO)N2C(=O)CC | -2 | -4 | 1.1
C[C@@H](NC(=O)[C@H]1[C@H](CO)[C@H]2Cn3c(ccc(-c4ccccc4F)c3=O)[C@@H]1N2C)c1ccccc1 | 3 | 0 | 3.4
CCc1csc(N2[C@H](C#N)[C@H](c3ccc(-c4ccc(F)cc4)cc3)[C@H]2CO)n1 | 0 | 0 | 0.3
N#C[C@@H]1[C@@H](c2ccccc2)[C@H](CO)N1C(=O)Cc1ccccn1 | -2 | -3 | 1.0
COc1ccc(CNC(=O)C[C@@H]2C[C@H]3c4cc(NC(=O)CN(C)C)ccc4O[C@H]3[C@@H](CO)O2)cc1 | -4 | -3 | -0.7
CN(C)C(=O)c1cccc(-c2ccc3c(c2)[C@@H]2[C@@H](CCN2Cc2ccccc2F)[C@H](CO)N3)c1 | -3 | 5 | -7.3
Cc1ccccc1-c1ccc([C@H]2[C@@H](CO)N3CCCCN(S(C)(=O)=O)C[C@H]23)cc1 | 2 | -8 | 10
O=C(C[C@H]1C=C[C@@H](NS(=O)(=O)c2ccccc2)[C@H](CO)O1)NCCN1CCCCC1 | -2 | -3 | 0.8
C[C@H](CO)N1C[C@H](C)[C@H](CN(C)C(=O)C2CC2)OCc2ccccc2-c2ccccc2C1=O | -3 | 8 | -11
CO[C@@H]1CN(C)C(=O)c2ccc(NS(=O)(=O)c3cccc(F)c3)cc2OC[C@@H](C)NC[C@@H]1C | 2 | 1 | 1.1
COc1ccc(NC(=O)N(C)C[C@H]2OCc3cn(nn3)CCCC(=O)N([C@H](C)CO)C[C@H]2C)cc1 | -4 | -3 | -1.6
C[C@H](CO)N1C[C@H](C)[C@@H](CN(C)C(=O)CCCN(C)C)OCCCC[C@H](C)Oc2ccc(NC(=O)Nc3cccc4ccccc34)cc2C1=O | 0 | -3 | 2.9
CN1c2ccc(-c3ccc(F)cc3)cc2[C@H]2[C@H](CCN2C(=O)Cc2cccnc2)[C@H]1CO | 3 | 1 | 1.9
O=C(C[C@@H]1CC[C@@H]2[C@H](COC[C@@H](O)CN2CC2CCOCC2)O1)NCc1ccc(Cl)cc1 | 5 | 5 | -0.7
CCN1[C@H](C(=O)N2CCCCC2)[C@@H](CO)[C@@H]2Cn3c(ccc(-c4cccc(F)c4)c3=O)[C@@H]21 | 6 | 3 | 3.6
O=C(C[C@@H]1C=C[C@H](NC(=O)c2ccc(F)cc2)[C@@H](CO)O1)NCCc1ccncc1 | 4 | 6 | -2.6
O=C(N[C@@H]1CC[C@H](CCn2cc(-c3ccccc3)nn2)O[C@@H]1CO)c1ccccc1F | -1 | 4 | -5.2
CN1CCN(C(=O)C[C@H]2CC[C@H](NC(=O)c3ccc4c(c3)OCO4)[C@@H](CO)O2)CC1 | 3 | -4 | 6.5
N#C[C@H]1[C@@H](c2ccccc2-c2cccc(F)c2)[C@@H](CO)N1C(=O)NC1CCCCC1 | ? | . | .
COc1cccc(-c2ccc([C@@H]3[C@H]4CN(C(=O)NC(C)C)CC(=O)N4[C@H]3CO)cc2)c1 | 4 | 1 | 3.0
COc1cccc(NC(=O)N(C)C[C@H]2Oc3cc(C#Cc4ccncc4)ccc3S(=O)(=O)N([C@H](C)CO)C[C@H]2C)c1 | -3 | -1 | -1.7
CN1C(=O)c2cc(NC(=O)c3cnccn3)ccc2OC[C@@H]2O[C@H](CC(=O)NC3CCC3)CC[C@H]21 | 0 | -1 | 1.0
CCCNC(=O)N1[C@@H]2c3ccc(-c4cccc(OC)c4)c(=O)n3C[C@H]1[C@H](CO)[C@H]2C(=O)NCC | -6 | -7 | 1.1
CN(C)CC#Cc1ccc([C@@H]2[C@@H](CO)N3CCCCN(C(=O)Nc4ccc(F)cc4)C[C@H]23)cc1 | 8 | 7 | 0.6
O=C(Cc1ccccc1)N1CC(=O)N2[C@@H](CO)[C@H](c3ccc(C#CCc4ccccc4)cc3)[C@@H]2C1 | 0 | -3 | 3.1
CN(C)C(=O)c1ccc(-c2ccc([C@@H]3[C@@H](C#N)N(C(=O)Cc4ccccn4)[C@H]3CO)cc2)cc1 | -3 | -9 | 6.0
C[C@@H]1CN([C@@H](C)CO)C(=O)c2cc(NS(=O)(=O)c3cccs3)ccc2O[C@H]1CN(C)C(=O)Nc1ccc2c(c1)OCO2 | -3 | -4 | 0.4
C[C@@H]1CN([C@H](C)CO)C(=O)c2cc(/C=C/c3ccccc3)cnc2O[C@H]1CN(C)S(=O)(=O)c1ccccc1F | 1 | 0 | 1.3
CN(C)C(=O)c1ccc(-c2ccc([C@@H]3[C@@H](CO)N4CCCCN(CC5CC5)C[C@@H]34)cc2)cc1 | 20 | -2 | 22
COC(=O)C[C@H]1C[C@@H]2c3cc(NS(C)(=O)=O)ccc3O[C@@H]2[C@@H](CO)O1 | 1 | -3 | 3.9
COc1ccc2c3c([nH]c2c1)[C@@H](CO)N(C(=O)CN1CCOCC1)CC31CCN(CC2CCCC2)CC1 | 18 | 6 | 11
O=C(C[C@@H]1C=C[C@@H](NC(=O)c2cnccn2)[C@H](CO)O1)NCc1ccccc1F | ? | . | .
C[C@@H]1CN([C@@H](C)CO)C(=O)Cc2cc(NC(=O)CCC(F)(F)F)ccc2O[C@@H]1CN(C)CC1CC1 | -3 | -3 | 0.0
O=C([C@@H]1[C@@H](CO)[C@@H]2Cn3c(ccc(C4=CCCCC4)c3=O)[C@@H]2N1Cc1nccs1)N1CCCCC1 | 0 | -3 | 2.5
O=C(Nc1ccc(Cl)cc1)N1C[C@H]2[C@@H](c3ccccc31)[C@H](CO)N2CC1CCCCC1 | -1 | 0 | -1.1
CCS(=O)(=O)N1CC(=O)N2[C@H](CO)[C@@H](c3ccc(C4=CCCCC4)cc3)[C@@H]2C1 | 15 | 9 | 5.5
CO[C@H]1CN(C)C(=O)c2cc(NC(=O)c3ccccc3F)ccc2OC[C@@H](C)N(CC2CCOCC2)C[C@@H]1C | 2 | -2 | 3.5
CCC(=O)N1[C@H](CO)[C@@H]2c3ccccc3N(S(=O)(=O)c3ccccc3)C[C@@H]21 | -4 | 1 | -5.3
Cc1noc(C)c1S(=O)(=O)Nc1ccc2c(c1)C(=O)N([C@H](C)CO)C[C@@H](C)[C@H](CN(C)Cc1ccc3c(c1)OCO3)O2 | 0 | 1 | -1.2
C[C@H](CO)N1C[C@H](C)[C@@H](CN(C)S(=O)(=O)c2cn(C)cn2)OCCCC[C@H](C)Oc2ccc(NC(=O)Nc3cccc4ccccc34)cc2C1=O | 6 | 6 | 0.1
COC(=O)C[C@H]1CC[C@H]2[C@H](COc3ccc(NC(=O)Nc4cc(C)cc(C)c4)cc3C(=O)N2C)O1 | -2 | 6 | -8.0
N#Cc1cccc(-c2ccc3c(c2)[C@@H]2[C@@H](CCN2C(=O)c2ccc4c(c2)OCO4)[C@@H](CO)N3)c1 | ? | . | .
Cc1noc(C)c1NC(=O)N(C)C[C@@H]1Oc2ccc(NC(=O)Nc3ccc(C(F)(F)F)cc3)cc2C(=O)N([C@H](C)CO)C[C@@H]1C | -1 | 4 | -4.5
C[C@H]1CN([C@@H](C)CO)C(=O)c2ccccc2-c2ccccc2CO[C@H]1CN(C)C | 6 | -4 | 10.0
CO[C@@H]1CN(C)C(=O)c2cc(NC(=O)c3ccc4c(c3)OCO4)ccc2OC[C@@H](C)NC[C@@H]1C | -4 | -7 | 2.6
COc1cccc(S(=O)(=O)N2CCC3(CC2)CN[C@H](CO)c2[nH]c4cc(OC)ccc4c23)c1 | -3 | -6 | 3.2
C/C=C/c1ccc([C@H]2[C@@H](CO)N3CCCCN(C(=O)C4CCCC4)C[C@@H]23)cc1 | 5 | 9 | -3.9
CCC(=O)N(CC1CCC1)C[C@H]1[C@H](c2ccccc2)[C@@H](CO)N1C(C)=O | -1 | -2 | 0.8
CC=Cc1ccc2n(c1=O)C[C@H]1[C@H](CO)[C@@H](C(=O)N3CCc4ccccc4C3)[C@@H]2N1CC (mixture of isomers) | 9 | 11 | -1.5
N#Cc1ccc(-c2ccc3c(c2)[C@@H]2[C@@H](CCN2C(=O)c2ccc4c(c2)OCO4)[C@@H](CO)N3)cc1 | ? | . | .
COc1ccc2c3c(n(C)c2c1)[C@H](CO)N(CC1CC1)CC31CCN(C(=O)CC2CC2)CC1 | -4 | -7 | 3.0
CO[C@@H]1CN(C)C(=O)c2cc(NS(=O)(=O)c3cn(C)cn3)ccc2OC[C@H](C)N(C)C[C@H]1C | -1 | -4 | 2.9
O=C(Nc1ccc(F)cc1)N1CCCCN2[C@H](CO)[C@H](c3ccc(C#CC4CC4)cc3)[C@H]2C1 | ? | . | .
CC=Cc1ccc2n(c1=O)C[C@H]1[C@H](CO)[C@@H](C(=O)NCCC)[C@@H]2N1CC1CCCC1 (mixture of isomers) | 1 | 0 | 0.9
C[C@@H]1CN([C@H](C)CO)C(=O)c2c(c3ccccc3n2C)-c2ccccc2CO[C@@H]1CN(C)Cc1ccc(-c2ccccc2)cc1 | ? | . | .
C[C@H]1CN([C@@H](C)CO)C(=O)c2c(c3ccccc3n2C)-c2ccccc2CO[C@H]1CN(C)C(=O)c1cc(Cl)cc(Cl)c1 | ? | . | .
CN(C)C(=O)c1ccc(-c2ccc3c(c2)[C@H]2[C@H](CCN2S(=O)(=O)c2cn(C)cn2)[C@H](CO)N3)cc1 | 13 | 11 | 2.1
Cc1ccccc1-c1ccccc1[C@@H]1[C@@H](C#N)N(C(=O)c2ccc(F)cc2)[C@H]1CO | -10 | 2 | -12

# Screening results as filed in PubChem.

# A portion of the library, so the mix of outcomes need not match the whole.
